Source: PubChem (several laboratories)
Mtb growth – M. tuberculosis H37Rv growth inhibitors, H37Rv strain (AID 1626) | inhibition, % at 10 µM; hits with a dose series show IC50 in µM | 0.95% of 220,000 active | M. tuberculosis H37Rv growth inhibition; higher % means a stronger effect;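 active = confirmed in a dose series; inconclusive = inhibition above 80% but not taken into the dose series; inactive = below 80% or under 30% at every dose of the series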;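 note: bacteria incubated seven days before Alamar blue readout; 0% = bacteria only wells and 100% = bacteria with antibiotic wells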
RecA intein inh – blocks M. tuberculosis RecA intein splicing | P9WHJ3 | cell-free RecA intein splicing, fluorescence | inhibition, %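 (about 9 µM by stock and volumes)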 | 0.75% of 290,000 active | AID 2221; in the data active = inhibition above about 30%; inconclusive = no clear call, values can overlap the other calls;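 note: 0% = vehicle wells and 100% = reference inhibitor control wells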
Target sequence (P9WHJ3 whole entry, looked up): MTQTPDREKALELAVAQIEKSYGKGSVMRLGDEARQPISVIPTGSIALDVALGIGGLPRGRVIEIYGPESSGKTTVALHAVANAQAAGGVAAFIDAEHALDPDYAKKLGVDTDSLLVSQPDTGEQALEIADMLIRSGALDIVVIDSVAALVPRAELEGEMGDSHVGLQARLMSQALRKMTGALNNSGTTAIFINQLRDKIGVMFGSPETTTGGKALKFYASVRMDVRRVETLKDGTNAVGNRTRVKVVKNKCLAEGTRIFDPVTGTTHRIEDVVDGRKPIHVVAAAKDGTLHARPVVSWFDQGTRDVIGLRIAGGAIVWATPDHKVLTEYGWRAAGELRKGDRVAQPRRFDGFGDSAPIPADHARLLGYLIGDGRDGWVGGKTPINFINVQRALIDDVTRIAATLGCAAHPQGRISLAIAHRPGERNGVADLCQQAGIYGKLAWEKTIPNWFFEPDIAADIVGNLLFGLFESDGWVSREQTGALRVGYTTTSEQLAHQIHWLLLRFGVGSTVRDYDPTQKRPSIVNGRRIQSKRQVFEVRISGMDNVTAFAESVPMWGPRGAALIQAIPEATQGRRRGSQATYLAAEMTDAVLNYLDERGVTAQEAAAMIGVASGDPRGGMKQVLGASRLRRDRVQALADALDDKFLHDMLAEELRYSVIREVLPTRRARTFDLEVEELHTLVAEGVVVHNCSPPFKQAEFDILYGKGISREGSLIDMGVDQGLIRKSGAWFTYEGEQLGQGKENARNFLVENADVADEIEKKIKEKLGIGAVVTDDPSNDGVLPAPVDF
YopH inh – YopH (Yersinia) phosphatase inhibition; fluorescence Ex485/Em525; inhibition, %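 (about 10 µM by stock and volumes)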; 0.16% of 140,000 active; AID 898;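 active = inhibition of 50% or more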;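 note: controls were vehicle for no effect and minimum signal wells for full effect; inactives centre near -20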
Arbovirus anti – blocks arbovirus infection; arbovirus infection cell-based antiviral screen; inhibition, % at 10 µM; 0.37% of 200,000 active;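 active = inhibition from about 30%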;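 note: bluetongue infection of BSR cells; cell survival read as ATP light after 72 h; 0% = infected wells without compound and 100% = uninfected wells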
Mtb bLac sens – beta-lactam sensitization of Mtb H37Rv | AID 434955 | inhibition, % at 25 µM | M. tuberculosis H37Rv growth with meropenem, percent inhibition; hits of this screen are not shown here | 0.27% of 330,000 active;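 active = about 74% or more and at least 40 points above the plate without the antibiotic, then above 30% in a dose series; inconclusive = first-round hits that could not be retested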;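 note: growth measured after seven days incubation then overnight dye step; 0% = bacteria only wells and 100% = bacteria with antibiotic; twin plates without the antibiotic show which effects depend on it; some results filed as inactive read as strong as hits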
Arbovirus anti repeat – further read-out of Arbovirus anti, marked with its call; inhibition, %; measured here: 10K subset replicate screen; many hits read low in the repeat;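 first of two repeat runs on a subset; 0% = infected and 100% = uninfected wells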
* marks the source's active call; other numbers are inactive results; i = inactive; ? = inconclusive; . = not tested or not shown. The list is partial. The share of hits here may be higher or lower than overall.

The first five entries, to show the layout:
SMILES	Mtb growth	RecA intein inh	YopH inh	Arbovirus anti	Mtb bLac sens	others
CNS(=O)(=O)c1ccc2c(c1)oc(=O)c1cc(S(=O)(=O)NC)ccc12	-3%	-2.3	.	0	-1
CO/N=C(\N)c1ccc([N+](=O)[O-])cc1	0%	0.5	-36	-2	-8
CC(C)(C)c1ccccc1NC(=S)NCc1ccccc1	-4%	3.9	-14	2	-5
COc1cccc(C(=O)C2CCCN(Cc3ccon3)C2)c1 (stereo not given)	9%	-1.4	.	3	-7
Cc1c(NC(=O)c2c(N)sc3c2CCCC3)c(=O)n(-c2ccccc2)n1C	1%	0.9	.	1	3

Main list, from the first entry:
SMILES	Mtb growth	RecA intein inh	YopH inh	Arbovirus anti	Mtb bLac sens	others
CNS(=O)(=O)c1ccc2c(c1)oc(=O)c1cc(S(=O)(=O)NC)ccc12	-3%	-2.3	.	0	-1
CO/N=C(\N)c1ccc([N+](=O)[O-])cc1	0%	0.5	-36	-2	-8
CC(C)(C)c1ccccc1NC(=S)NCc1ccccc1	-4%	3.9	-14	2	-5
COc1cccc(C(=O)C2CCCN(Cc3ccon3)C2)c1 (stereo not given)	9%	-1.4	.	3	-7
Cc1c(NC(=O)c2c(N)sc3c2CCCC3)c(=O)n(-c2ccccc2)n1C	1%	0.9	.	1	3
COc1cccc(NC(=O)c2nc3nc(C)cc(C(F)F)n3n2)c1	-3%	0.1	-34	-2	0	Arbovirus anti repeat=0
COCCCNC(=O)CN(c1cc(Cl)ccc1OC)S(=O)(=O)c1ccc(C)c([N+](=O)[O-])c1	-9%	-0.4	.	-3	-8
CCNS(=O)(=O)c1ccc(CCC(=O)N2CCN(Cc3ccccc3)CC2)cc1	.	2.8	.	.	4
CSc1ccc(/C=N/Nc2nc(C)cc(=O)[nH]2)cc1	3%	-1.4	.	-1	-8
O=C(COC(=O)Cc1ccc(Cl)cc1)Nc1cc(S(=O)(=O)N2CCOCC2)ccc1N1CCCC1	-1%	0.5	-20	1	-5
CCCOC(=O)Cn1cnc2scc(-c3ccc(OC)cc3)c2c1=O	.	0.3	.	.	10
O=C(O)c1ccc(S(=O)(=O)c2ccc3c(c2)C(=O)N(NC(=O)c2ccncc2)C3=O)cc1	?	-0.9	.	.	100
CN(C)C(/C=C/Nc1ccc(O)cc1)=C(C#N)C#N	-14%	-11	.	11	21
O=C(Cc1ccc(F)cc1)c1ccc(O)cc1O	5%	1.7	-5	7	-3
O=C(CCN1C(=O)C2C3CCC(C3)C2C1=O)Nc1cccc(Cl)c1 (stereo not given)	.	1.1	.	.	?
CCOCc1cnc(C)nc1NCC(=O)c1c(C)n(C)c2ccc(OC)cc12	3%	-7.6	-8	-2	.
CCn1c2ccc(/C(C)=N\O)cc2c2cc(/C(C)=N\O)ccc21	5%	3.1	-37	-1	25
CC(C)c1cc(NCCOCCO)n2c(nc3ccccc32)c1C#N	.	-91	.	.	4
COC(=O)/C(=C1/Oc2ccc(C)cc2S1)C(F)(F)F	1%	.	-25	10	3
COc1ccc(NS(=O)(=O)c2ccc(C)c(C(=O)NCC(c3ccco3)N(C)C)c2)cc1 (stereo not given)	.	-0.4	.	.	-8
CN1CCN(c2oc(Cc3cccc4ccccc34)nc2C#N)CC1	-1%	-0.8	.	.	-6
O=c1c2cccnc2[nH]c(=S)n1CCCN1CCN(c2ccc(F)cc2)CC1	-3%	-5.2	17	3	-5
CCC1CCCCN1CCCNC(=O)c1ccc(CS(=O)(=O)Cc2ccc(Cl)cc2)o1 (stereo not given)	.	1.5	.	.	-6
Cc1ccc(C)c(OCc2cc(C(=O)N3CCC(N4CCCC(O)C4)CC3)no2)c1 (stereo not given)	.	0.1	.	.	7

Ordered by molecular weight (smallest number first): part of the list above.
SMILES	Mtb growth	RecA intein inh	YopH inh	Arbovirus anti	Mtb bLac sens	others
CN(C)C(/C=C/Nc1ccc(O)cc1)=C(C#N)C#N	-14%	-11	.	11	21
CCn1c2ccc(/C(C)=N\O)cc2c2cc(/C(C)=N\O)ccc21	5%	3.1	-37	-1	25
CC(C)c1cc(NCCOCCO)n2c(nc3ccccc32)c1C#N	.	-91	.	.	4

Continued:
SMILES	Mtb growth	RecA intein inh	YopH inh	Arbovirus anti	Mtb bLac sens	others
CC(C)C(CCNC(=O)CN1C(=O)c2ccccc2C1=O)c1ccco1 (stereo not given)	-7%	2.2	-8	11	1
CCN(CC(=O)NC(C)(C)C)C(=O)C(c1ccccc1)c1ccccc1	8%	0.0	.	1	0
Cc1cccc(NC(=S)N2CCN(c3ccccc3F)CC2)c1C	.	1.8	.	.	0
Cc1ccsc1C(=O)C1CCCN(Cc2cnc(N)nc2)C1 (stereo not given)	6%	3.5	.	.	2
Cc1c(C(c2ccc(O)cc2)c2c(O)c3ccccc3oc2=O)c(=O)n(-c2ccccc2)n1C (stereo not given)	-7%	1.7	-25	14	-1
CC(C)(C)OC(=O)N1CCN(c2ccc(NC(=O)Cn3nnc(-c4ccccc4)n3)cc2)CC1	7%	5.8	-8	-2	1
O=C(NCc1ccc(Cl)cc1)C1CCN(S(=O)(=O)c2ccc(F)cc2)CC1	8%	-1.1	.	3	-2
COc1cccc(CNC(=O)c2nnn(CC(=O)Nc3ccc(C)c(C)c3)c2N)c1	-1%	-0.4	.	-8	-3
N#Cc1ccccc1NC(=O)Nc1cccs1	-10%	-1.7	3	8	-16
CN(Cc1ccccc1)C1(CNC(=O)CCC(F)(F)F)Cc2ccccc2C1	.	0.7	.	.	-4
O=C(c1cc(COc2ccc(F)cc2Cl)on1)N1CCCCCC1	.	5.1	.	.	5
CCCCCc1cc(=O)oc2c(C(CCN3CCCC(C)C3)c3ccc4c(c3)OCO4)c(OC)cc(OC)c12 (stereo not given)	?	35*	.	.	100
Cc1ccc(-c2csc3nc(C)n(-n4c(C)ccc4C)c(=O)c23)o1	-5%	11	-30	-12	-9
CC(=O)OCCNc1cc(SC(C)C)c2nonc2c1[N+](=O)[O-]	2%	23	.	18	-1
CCOC(=O)[C@@H]1[C@H]2COc3cc(OC)ccc3[C@H]2N2C(=O)N(c3cccc(Cl)c3)C(=O)[C@]12C	.	1.4	.	.	58
COc1ccccc1-c1nc(C(=O)NCC2CCCO2)cc2c1[nH]c1ccccc12 (stereo not given)	.	5.8	.	.	-3
O=C(O)COc1ccc(/C=N/O)cc1Br	3%	.	.	11	-2
NC(=O)C[n+]1cccc(CNC(=O)c2ccc(OC(F)F)cc2)c1	0%	-1.1	.	12	-1
COc1ccc(CCNS(=O)(=O)c2ccc3c(c2)NC(=O)C(C)S3)cc1OC (stereo not given)	.	19	.	.	-2
O=C(NN1C(=O)C2C(c3ccccc3)C=CC(c3ccccc3)C2C1=O)c1ccncc1 (stereo not given)	-7%	0.2	.	5	0
COC(=O)c1cccnc1-n1c(=O)c2cccnc2n(CC(=O)Nc2ccc(Br)cc2)c1=O	-9%	4.9	.	6	-5
COCn1c(-c2ccccc2)nc2ccccc21	-2%	.	-40	6	-6
S=C1NC2=C(CCC/C2=C\c2ccc(Cl)cc2)C(c2ccc(Cl)cc2)N1 (stereo not given)	10%	13	.	.	9
COc1ccccc1CC(=O)Nc1ccc2c(c1)CCC2	9%	1.5	-28	3	-4
COc1ccc(/C(N)=N/OC(=O)Cc2ccc(C)cc2)cc1OC	4%	4.0	0	10	11
CCOC(=O)N1CCN(C(=O)COC(=O)COc2c(C)cc(C)cc2C)CC1	.	-0.6	.	.	44
CCCN(CC#CCOc1ccc(OC)cc1)CCC	8%	2.7	19	4	-2
CCN(CC)Cc1c(C(=O)N2CCc3ccccc3C2)nc2ccc(Cl)cn12	2%	1.8	.	3	-2
CN(C)C(=O)c1nc2ccccc2s1	2%	-0.5	-14	5	3
CCO/N=C/c1ccc(OC)c(Oc2nc(OC)cc(OC)n2)c1	2%	-2.9	.	-5	-2
CC1CCCN(c2ccc3nc4ccccc4c(=O)n3n2)C1 (stereo not given)	2%	-2.2	.	-6	8
Cc1noc(C)c1COc1ccc(C(=O)NNC(=O)c2ccccc2O)cc1	.	-1.7	.	.	-4
Cc1ncsc1C(=O)N1CCCC(CNS(=O)(=O)c2cccs2)C1 (stereo not given)	-5%	-2.3	.	0	1
N#CCCN(Cc1cccnc1)C(=S)NC1CC2C=CC1C2 (stereo not given)	-10%	2.9	.	.	-8
COc1ccc(OC)c(CNn2c(-c3cccc(C)c3)nc3ccccc3c2=O)c1	17%	4.7	0	-6	5
O=C(CN(C(=O)Cn1nnc(-c2ccc(F)cc2)n1)C1CCCC1)NC1CCCC1	1%	0.6	-30	-6	-11

Molecules from the list above containing a cyano group, in the order listed:
SMILES	Mtb growth	RecA intein inh	YopH inh	Arbovirus anti	Mtb bLac sens	others
CN(C)C(/C=C/Nc1ccc(O)cc1)=C(C#N)C#N	-14%	-11	.	11	21
CC(C)c1cc(NCCOCCO)n2c(nc3ccccc32)c1C#N	.	-91	.	.	4
CN1CCN(c2oc(Cc3cccc4ccccc34)nc2C#N)CC1	-1%	-0.8	.	.	-6
N#Cc1ccccc1NC(=O)Nc1cccs1	-10%	-1.7	3	8	-16
N#CCCN(Cc1cccnc1)C(=S)NC1CC2C=CC1C2 (stereo not given)	-10%	2.9	.	.	-8

Additional structures
SMILES	Mtb growth	RecA intein inh	YopH inh	Arbovirus anti	Mtb bLac sens	others
Cn1c(CNC(=O)c2ccco2)nnc1SCC(=O)c1ccc(Br)cc1	.	1.0	.	.	0
CCOC(=O)c1cnc(SCC(=O)Nc2ccc3c(c2)OCCO3)nc1N	27%	1.9	-13	-16	25
COc1ccc(NC(=O)CN(C)S(=O)(=O)c2ccc3c(c2)c(=O)n(C)c(=O)n3C)cc1	.	-0.5	.	.	-9
CCC(C)(C)NC(=S)Nc1ccc(-c2nc3ccc(C)cc3s2)cc1	6%	-6.3	-39	-20	1
CC1=C(C#N)C(Nc2cc(C)ccn2)(C(F)(F)F)C(=O)N1 (stereo not given)	0%	-1.3	-20	7	8
Cc1cc(C)cc(NC(=S)N2CCN(C(=O)c3ccco3)CC2)c1	.	-1.8	.	.	-9
CC1CC(=O)N(CC(=O)NCc2ccc3c(c2)OCO3)c2ccccc2S1 (stereo not given)	.	2.7	-35	6	-5
COc1ccc(NC(=O)C23CC4CC(C2)CC(n2cnc(Br)n2)(C4)C3)cc1OC	2%	-0.8	-6	10	-1
CCOCCCNC(=S)N(CCN(CC)CC)Cc1cc2cc3c(cc2[nH]c1=O)OCCO3	.	-3.9	.	.	-1
CSCCC(N=Cc1c(O)n(-c2ccc(F)cc2)c(=O)[nH]c1=O)C(=O)O (stereo not given)	-2%	-2.7	-25	6	.
CC(C)CN1C(=O)NC(NC(=O)c2cccs2)(C(F)(F)F)C1=O (stereo not given)	-3%	-3.3	-33	7	3
O=Cc1ccc(O)c(O)c1	6%	-4.3	-64	12	-9
CCOC(=O)CNc1c(-c2ccccc2)nc2ccc(Cl)cn12	-3%	-4.5	4	-6	-3
CC1C/C(=N\NC(=S)NCc2ccccc2)CC(C)(C)C1 (stereo not given)	-5%	4.4	-4	8	41
Cc1ccc2nc(SC(C)C(=O)NC3CCCc4ccccc43)[nH]c2c1 (stereo not given)	.	.	-20	17	-1
C/C(=N\NC(=O)CC#N)c1cc2ccc(O)cc2oc1=O	-10%	i	.	-4	-5
Cn1c(=O)c2c(nc(SCC(=O)N3CCc4ccccc4C3)n2C)n(C)c1=O	-10%	1.5	-33	3	14
CCOc1ccc(Cc2onc3c2C(=O)CCC3)cc1OCC	-3%	1.1	.	4	2
CC(CCc1ccccc1)NC(=O)c1ccc(F)cc1 (stereo not given)	.	-0.9	.	.	-2
O=C(NNC(=O)C1CCN(S(=O)(=O)c2cccc(Cl)c2)CC1)C1CC1	-1%	-0.9	.	.	-2
N#CCC(CNc1ncc(C(F)(F)F)cc1Cl)OC(=O)c1cccc(C(F)(F)F)c1 (stereo not given)	2%	-10	-22	9	9
COP(=O)(OC)C(NC(=O)/C=C/c1ccccc1)C(Cl)(Cl)Cl (stereo not given)	1%	-0.7	.	6	-2
O=C(Cn1cncn1)NCc1cccc(C(F)(F)F)c1	0%	-1.0	.	-1	-7
Cc1ccc(S(=O)(=O)/C(C#N)=C/c2c(N3CCCCC3)nc3ccccn3c2=O)cc1	-6%	0.6	.	.	-10
COc1ccc(Cl)cc1C(=O)NNC(=S)NC(=O)c1cc(-c2ccc(Cl)cc2)nc2ccccc12	?	-5.5	-17	-15	96
Cc1cccc(Nc2nnc(SCc3cn4ccsc4n3)s2)c1	10%	3.6	-18	4	17
CCN1CCN(Cc2c(O)ccc3c(=O)c(-c4ccc(OC)c(OC)c4)c(C)oc23)CC1	-6%	-1.0	-26	8	7
CSc1ncc(CN2CCN(C3CCN(C(C)C)CC3)C(CCO)C2)cn1 (stereo not given)	5%	.	.	6	.
